From PubChem BioAssay
GALR2 agonist: GALR2 receptor agonists, primary screen, cell-based; GALR2-expressing cells, agonist activation read-out; activation, %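 (tested at 5 µM)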; hit rate 0.48% among 140,000; AID 803, 2007;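 active = above mean plus 3 SD of all compounds, about 5% in these data, not always enough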;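 also: 0% = vehicle buffer wells and 100% = reference agonist at full effect; tested in CHO reporter cells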
Target sequence (O43603 whole entry, looked up): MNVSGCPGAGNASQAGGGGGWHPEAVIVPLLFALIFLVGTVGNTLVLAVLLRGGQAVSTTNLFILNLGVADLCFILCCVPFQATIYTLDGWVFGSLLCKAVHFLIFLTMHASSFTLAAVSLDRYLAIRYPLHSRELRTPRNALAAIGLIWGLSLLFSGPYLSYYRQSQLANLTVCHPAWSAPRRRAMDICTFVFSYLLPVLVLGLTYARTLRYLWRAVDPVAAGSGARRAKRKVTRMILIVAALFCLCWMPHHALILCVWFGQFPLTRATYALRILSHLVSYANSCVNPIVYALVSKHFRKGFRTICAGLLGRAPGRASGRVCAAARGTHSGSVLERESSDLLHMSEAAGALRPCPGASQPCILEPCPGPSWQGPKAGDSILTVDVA
PKD1 inh: inhibitors of human PKD1 kinase, biochemical, fluorescence polarization | Serine/threonine-protein kinase D1 (Homo sapiens), Q15139 | PKD1 kinase fluorescence polarization assay | inhibition, %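 (about 10 µM by stock and volumes)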 | hit rate 0.056% among 200,000 | AID 797, 2007;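 active = inhibition of 50% or more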;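 also: controls were vehicle for no effect and a reference inhibitor for full effect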
RGS16-Gao: modulators of RGS16 binding to Galphao, primary screen, biochemical, human proteins, multiplexed bead flow cytometry; Regulator of G-protein signaling 16 (Homo sapiens) + Guanine nucleotide-binding protein …; bead-based flow cytometry RGS16-Galphao binding, fluorescence; actives lie on both sides; binding response (% of control), % at 10 µM; hit rate 0.38% among 220,000; AID 1441, 2008;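 active = below 25% or above 175%, edge rows of some plates excepted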;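 also: Galphao activated by GDP with aluminum fluoride before binding; 100% = wells without compound and 0% = beads without RGS; some results beyond the cut were filed as inactive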
Target sequence (O15492 whole entry, looked up): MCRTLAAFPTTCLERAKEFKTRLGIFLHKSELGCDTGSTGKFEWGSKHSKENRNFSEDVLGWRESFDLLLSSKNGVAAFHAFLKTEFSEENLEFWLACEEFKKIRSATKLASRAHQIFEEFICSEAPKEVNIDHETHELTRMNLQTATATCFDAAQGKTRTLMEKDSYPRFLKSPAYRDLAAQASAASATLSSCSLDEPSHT
Target sequence (P09471 whole entry, looked up): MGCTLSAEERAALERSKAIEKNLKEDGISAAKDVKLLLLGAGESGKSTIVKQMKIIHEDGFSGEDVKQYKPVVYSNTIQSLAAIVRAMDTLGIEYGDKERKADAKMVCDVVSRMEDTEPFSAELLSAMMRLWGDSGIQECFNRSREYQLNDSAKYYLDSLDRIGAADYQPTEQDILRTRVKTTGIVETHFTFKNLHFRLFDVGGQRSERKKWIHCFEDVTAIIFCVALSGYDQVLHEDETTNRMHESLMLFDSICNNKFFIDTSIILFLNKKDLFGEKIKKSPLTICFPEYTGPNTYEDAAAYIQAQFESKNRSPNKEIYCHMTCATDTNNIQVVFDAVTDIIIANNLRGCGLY
Insulin prom inh: inhibitors of insulin promoter-driven GFP, primary screen, imaging, TRM-6 cells (human fetal islet line), eGFP reporter, cell count; inhibition, % at 2 µM; reporter expression induced with tamoxifen; hit rate 0.9% among 130,000;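 active = inhibition above the mean plus 3 SD, with well images judged a real hit on visual review, cut at about 60% in these data, passing the limit was not always enough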
HSV augment: enhancers of HSV replication in host cells, fold increase, host cell viability; AID 1956, 2009; hit rate 0.005% among 220,000; HSV replication augmentation in cells; maximum fold increase;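 active = peak rise of 1.5-fold or more in the series; tested in PC3 cells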;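 also: first round at 10 µM; read as green reporter fluorescence; hits show the peak of a series up to 25 µM; 1 = signal of infected wells without compound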
Insulin prom inh cell count: second read-out of Insulin prom inh, no call of its own (marks repeat the call); normalized cell count, %; measured here: cell count, toxicity; reference of the scale not given here;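 cells exposed to compound for 48 h; stained nuclei by imaging scaled within each plate; lower means fewer cells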
HSV augment primary fold: further read-out of HSV augment, marked with its call; fold increase; compound at 10 µM; measured here: primary screen fold increase 10 uM; tested in PC3 cells;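 GFP signal in the first replicate; 1 = infected wells without compound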
* = called active by the depositor; i = inactive; nt = no result given.

Each structure is followed by: GALR2 agonist, PKD1 inh, RGS16-Gao, Insulin prom inh, Insulin prom inh cell count, HSV augment, HSV augment primary fold
CCOC(=O)n1c(=O)n(Cc2ccc(Cl)c(Cl)c2)c2ccccc21
    -1.5, 10, 105, -16, 75, i, 0.88
COc1ccc(NC(=S)NC(=O)/C=C/c2ccco2)cc1
    nt, -4, 103, 21, 59, i, 0.96
CCOC(=O)CC1C(=O)NCCN1S(=O)(=O)c1ccc(OC)cc1 (stereo not drawn)
    nt, 4, 99, -24, 84, i, 1.1
Cc1ccc(CN2CCN(C(=O)c3ccncc3)CC2)cc1
    nt, -2, 102, 4, 70, i, 0.94
CC(=O)NC1(C(F)(F)F)C(=O)Nc2c1c(=O)n(C)c(=O)n2C (stereo not drawn)
    -3.3, -1, 101, -43, 111, i, 1
CCC(=O)Nc1c2c(nn1-c1ccc(F)cc1)CS(=O)C2 (stereo not drawn)
    -3.4, 4, 101, nt, nt, i, 0.84
CCn1c(SCC(=O)Nc2nccs2)nnc1-c1ccco1
    nt, 11, 100, 0, 131, i, 1
Cc1ccccc1OCCCN1CCCC1
    -0.5, -9, 102, nt, nt, i, 0.89
CCNC(=O)CSc1nc2ccccc2c(=O)n1OC
    -1.0, -2, 104, nt, nt, i, 0.98
CCOC(=O)N1CCN(C(=O)c2ccc3c(=O)n(Cc4ccccc4OC)c(=S)[nH]c3c2)CC1
    -1.1, -10, 96, 8, 75, i, 0.98
CCCC(CCC(=O)Nc1ccn(-c2ccccc2)n1)C(=O)O (stereo not drawn)
    nt, nt, 102, nt, nt, i, 1.2
Cc1ccnc2ccc(SC(F)(F)F)cc12
    nt, -3, 101, -417, 63, i, 0.95
COc1ccc(-c2nc(-c3ccc(Br)o3)no2)cc1OC
    -1.1, -17, 89, nt, nt, i, 0.89
Cc1cc(=O)[nH]c2c(C)c(N)ccc12
    -1.9, -14, 93, 6, 118, i, 1.2
Cc1ccc(-n2c(SC3CCOC3=O)nc3ccccc3c2=O)cc1 (stereo not drawn)
    nt, -6, 97, nt, nt, i, 0.98
O=C(COc1cc(Cl)c(Cl)cc1Cl)Nc1ccc([N+](=O)[O-])cc1Cl
    nt, nt, 125, nt, nt, i, 1.1
O=C(COc1ccc(Cl)cc1)N1CCCC1
    -0.3, -3, 100, 46, 115, i, 0.76
O=S(=O)(Nc1nc2ccccc2nc1Nc1ccc(N2CCOCC2)cc1)c1cc(Cl)ccc1Cl
    0.1, -8, 98, 0, 109, i, 1.2
CCOC(=O)C1CCN(C(=O)c2cc3c(-c4ccc(OC)c(OC)c4)nn(C)c3s2)CC1
    -1.6, 7, 105, nt, nt, i, 0.89
CN(C)CCCN(C(=O)c1ccc2c(c1)CCCC2)c1nc2c(F)cccc2s1
    -0.1, -2, 95, 16, 98, i, 0.86

3 entries out of the list above, ordered by their value in HSV augment primary fold, high to low.
| Molecule | HSV augment primary fold |
| --- | --- |
| Cc1ccc(-n2c(SC3CCOC3=O)nc3ccccc3c2=O)cc1 (stereo not drawn) | 0.98 |
| CCOC(=O)C1CCN(C(=O)c2cc3c(-c4ccc(OC)c(OC)c4)nn(C)c3s2)CC1 | 0.89 |
| O=C(COc1ccc(Cl)cc1)N1CCCC1 | 0.76 |

Continued:
Each structure is followed by: GALR2 agonist, PKD1 inh, RGS16-Gao, Insulin prom inh, Insulin prom inh cell count, HSV augment, HSV augment primary fold
O=C1CCCC(=O)N1c1ccc(Oc2ccc(Cl)cc2)cc1
    0.1, 3, 107, -20, 95, i, 0.98
Cc1[nH]n2c(=O)cc(C(C)C)nc2c1-c1ccccc1
    -1.3, -9, 95, nt, nt, nt, nt
NC1=NC(=O)/C(=C/c2ccccc2OS(=O)(=O)c2ccc3ccccc3c2)S1
    -0.3, -9, 97, nt, nt, i, 1.3
COc1ccc(-c2cc3ccccc3[nH]2)cc1
    nt, nt, 95, nt, nt, i, 1
Cn1c(=O)c2c(nc(NCCOc3ccc(F)cc3)n2C)n(C)c1=O
    nt, -16, 119, nt, nt, i, 1
Cc1oc(-c2cc3c(cc2Cl)OCO3)nc1CN1CCCC1c1ccc(F)cc1 (stereo not drawn)
    nt, -4, 106, nt, nt, i, 0.99
CC1CCCCC1NC(=O)c1nn(C)c(=O)c2ccccc12 (stereo not drawn)
    0.8, -5, 74, -35, 143, i, 1
N#Cc1c(-c2ccccc2)c(-c2ccccc2)nn(CC(=O)NNC(=O)Nc2ccccc2)c1=O
    -3.6, -1, 108, nt, nt, nt, nt
Cc1nc(NC(=O)c2ccccc2)sc1-c1csc(Nc2ccc(C(=O)O)cc2)n1
    nt, nt, 108, nt, nt, i, 0.85
COc1cccc(CN2CCCC(C(=O)c3ccc4c(c3)OCO4)C2)c1OC (stereo not drawn)
    nt, 3, 110, 33, 141, i, 1
O=[N+]([O-])c1ccc2c(c1)/C(=N\O)c1ccccc1-2
    nt, nt, 101, nt, nt, i, 1
COCCNC(=O)COc1ncnc2ccc(Br)cc12
    1.1, 5, 105, 18, 50, i, 0.86
COc1cccc(OCCNC(=O)CSc2ccc(C(F)(F)F)cc2[N+](=O)[O-])c1
    -0.9, -7, 109, nt, nt, i, 0.97
CCN(CC)S(=O)(=O)c1ccc(OC)c(NC(=O)C(Cc2ccccc2)N2C(=O)c3ccccc3C2=O)c1 (stereo not drawn)
    -1.1, -9, 84, nt, nt, i, 1.1
COc1cccc(C(=O)Nc2nnc(-c3cccs3)o2)c1
    -3.8, -8, 111, nt, nt, i, 0.87
CC(C)(C)CNC(CO)C12CC3CC(CC(C3)C1)C2 (stereo not drawn)
    -2.0, 7, 103, -32, 172, i, 0.93
CC1CCN(CC(=O)NC(=O)NCc2ccccc2)CC1
    -0.9, -4, 98, -47, 158, i, 1
O=C(Nc1ccc(CN2CCCCC2)cc1)c1c(F)c(F)c(F)c(F)c1F
    nt, 2, 104, nt, nt, i, 0.77
O=C1N[C@@H](Cc2ccccc2)[C@@H](c2ccco2)O1
    nt, nt, 90, nt, nt, i, 1.1
O=C(COC(=O)c1cnccn1)Nc1ccc(Cl)cc1
    -2.4, -6, 89, 13, 149, i, 0.97
COc1cccc(N=Nc2c(N)[nH]n3c(=O)c4c(nc23)CCCC4)c1
    nt, -5, 97, nt, nt, i, 0.87
Cc1ccc(CSCC(Nc2ccc(C(=O)O)cc2[N+](=O)[O-])C(=O)O)cc1 (stereo not drawn)
    -3.8, -1, 90, -32, 90, i, 1.1
Cc1ccc(C2C3=C(CC(C)(C)CC3=O)N(CCN3CCOCC3)C3=C2C(=O)CC(C)(C)C3)cc1
    6.5, 0, 112, nt, nt, i, 1
COc1ccc(N2C(=O)CC(SC(C)C)C2=O)cc1 (stereo not drawn)
    -0.8, 12, 102, nt, nt, i, 1.1
COc1ccc(-c2n[nH]c(=S)n2/N=C/c2cccn2C)cc1
    nt, nt, 97, nt, nt, i, 1.2
COc1ccc(C(=O)CN2C(=O)c3ccccc3C2=O)cc1
    nt, nt, 94, nt, nt, i, 0.95
COc1ccc(-c2nc3c(-c4ccccc4)cnn3cc2C)cc1F
    nt, -3, 105, nt, nt, i, 1.1
O=C1C(O)CC2c3ccccc3CC3(CCCC3)N12 (stereo not drawn)
    -1.4, -8, 119, nt, nt, i, 1
CCNC(=O)COc1ccc(CC)cc1
    -0.1, -16, 105, 63, 145, i, 0.99
COc1ccc(OC)c(NC(=O)c2ccc(-n3cccn3)nc2)c1
    -4.0, -16, 105, -46, 81, i, 0.88
CC/C(C)=N\NC(=O)CNC(=O)c1ccc(Cl)cc1Cl
    nt, -1, 107, -29, 102, i, 0.89
O=C(CNS(=O)(=O)c1ccccc1)NCc1cccnc1
    nt, -5, 81, nt, nt, i, 0.89
CC(Sc1nc(-c2ccccc2)cc(C(F)(F)F)n1)C(=O)Nc1ccc2c(c1)OCO2 (stereo not drawn)
    -0.9, -13, 101, 52, 86, i, 1
CCc1n[nH]c(=S)n1/N=C/c1cc(OC)cc([N+](=O)[O-])c1O
    nt, 2, 99, nt, nt, i, 0.76
Cc1ccccc1NC(=S)NCc1ccc2[nH]c3c(c2c1)CCCC3
    -0.8, 2, 91, -232, 78, nt, nt
Cc1cc2oc(C(=O)Nc3cccnc3)c(C)c2cc1C
    -2.9, -11, 103, nt, nt, i, 0.89
COCCNC(=O)C(=O)N/N=C/c1cccs1
    nt, 1, 105, nt, nt, i, 1
O=C(Nn1c(-c2ccccc2)nc2ccccc2c1=O)c1ccc([N+](=O)[O-])cc1
    -1.2, -3, 126, 53, 40, i, 1.1
CCOC(=O)N1CCN(C(=O)CCCn2nc(C)c3sc4ccccc4c3c2=O)CC1
    -1.1, -9, 98, nt, nt, i, 0.95
COc1ccc(-n2c(C)cc(C)c(C(C)=O)c2=S)cc1
    -0.4, 4, 45, -67, 122, i, 0.94
COc1ccccc1N1CCN(C(=O)c2ccc(CSc3ccccc3)cc2)CC1
    -0.8, -8, 110, -2, 87, i, 0.99
Cc1cccc(C)c1N1C(=O)CC(N2CCSCC2)C1=O (stereo not drawn)
    nt, nt, 98, nt, nt, i, 1.1
CC(=O)N1CCN(C(=O)COc2ccccc2C(=O)Nc2ccccc2)CC1
    nt, -3, 86, -73, 55, i, 0.93
CC(C)N1C(=O)/C(=C\c2nc3ccccc3c(=O)[nH]2)c2ccccc21
    -1.1, -8, 42, 15, 41, i, 0.81
CC(=O)N(CCCN(C)C)CCC(C)CCC=C(C)C (stereo not drawn)
    -0.2, -8, 98, 45, 74, i, 0.86
CCCNC(=O)N(C)c1nncnc1C(=O)NC
    -3.5, -2, 107, -117, 102, i, 0.85
COc1ccc(C(=O)NNC(=O)Nc2ccc(Cl)cc2)cc1
    nt, 8, 107, nt, nt, i, 0.98
COC(=O)C(C)(C)NC(=O)c1cccs1
    -2.2, -4, 123, 23, 89, i, 0.9
COc1ccc(N2CC(C(=O)NCc3ccccc3)CC2=O)cc1 (stereo not drawn)
    -1.0, 1, 100, nt, nt, i, 1
CCCCN1CNC(=S)N(c2ccccc2OCC)C1
    -1.5, -2, 112, nt, nt, i, 0.97

Continued:
Each structure is followed by: GALR2 agonist, PKD1 inh, RGS16-Gao, Insulin prom inh, Insulin prom inh cell count, HSV augment, HSV augment primary fold
O=C(/C=C/c1ccc(F)cc1)NC(=S)Nc1ccccc1C(=O)NC1CCCCC1
    -1.1, -13, 96, 27, 109, nt, nt
CCC(CC)C(=O)Nc1ccc(C)c(O)c1
    -2.5, -4, 93, nt, nt, nt, nt
COc1ccccc1NC(=O)NCCN1CCNC1=O
    nt, nt, 98, nt, nt, i, 1.1
O=C(CCC1CCCN(Cc2cccc(Cl)c2)C1)NCc1ccccc1F (stereo not drawn)
    nt, nt, 102, nt, nt, i, 0.91
O=c1[nH]c2ccc(NC(=S)Nc3ccc(Cl)cc3)cc2[nH]1
    -3.6, 1, 102, -23, 159, i, 0.73
O=C(NCc1ccco1)c1nn2c(C(F)(F)F)cc(-c3cccs3)nc2c1Cl
    0.7, 2, 100, nt, nt, i, 0.7
Cn1cc(/C=C(\C#N)C(=O)Nc2cccc([N+](=O)[O-])c2)c2ccccc21
    nt, -12, 98, -135, 167, i, 1.1
C/C=C(\C)C(=O)NCCN1C2=NC[C@H](Cc3ccc(O)cc3)N2C[C@@H]1Cc1ccc(OC)cc1
    nt, 2, 103, nt, nt, i, 0.97
FC(F)(F)c1ccccc1C1C2=C(Nc3ncnn31)c1ccccc1CCC2 (stereo not drawn)
    -2.6, -2, 106, -54, 96, i, 1
CN(C)c1oc(/C=C/c2ccccc2)nc1C#N
    1.3, 0, 39, nt, nt, i, 1.1
CC1=C(C(=O)Nc2cc(-c3cccc(F)c3)[nH]n2)C2(CCCCC2)OC1=O
    -0.7, 8, 102, nt, nt, i, 0.89
O=C(O)CNC(=O)c1ccccc1Br
    nt, 2, 77, -19, 53, i, 1.1
COc1ccc(N(C(=O)COc2ccccc2OC)S(=O)(=O)c2ccc(C)cc2)cc1
    -2.2, -5, 89, 26, 116, i, 0.95
COC(=O)C1=C(C)NC(=O)C1(NC(=O)CN1CCCC1=O)C(F)(F)F (stereo not drawn)
    -2.2, -6, 103, -20, 100, i, 0.89
COc1ccc(CNC(=O)CN(c2cccc([N+](=O)[O-])c2)S(C)(=O)=O)cc1
    nt, -9, 109, -72, 79, i, 1
COc1cccc(N2C(N)=NC(N)=NC2(C)C)c1
    -1.8, 14, 104, 6, 45, i, 1
O=C(Cn1c(NCCCO)nc2ccccc21)c1ccco1
    1.8, -13, 102, -7, 87, i, 0.79
CCCNC(=O)N1CCCC(C(N)=O)C1 (stereo not drawn)
    nt, 2, 105, 29, 146, i, 0.81
Cc1cc(C)nc(SCC(=O)Nc2ccc(S(=O)(=O)NCCO)cc2)n1
    -2.0, 0, 106, 40, 163, i, 0.84
COc1ccc(OCc2nnc(SCC(=O)N3CCCc4ccccc43)n2-c2ccc(C)cc2)cc1
    -1.0, -2, 103, -36, 88, i, 0.84
